Screens (PubChem BioAssay)
Beta cell apopt – beta cell apoptosis inhibition. 300,000 tested, 0.8% active. protection from apoptosis, % (test concentration not listed). INS-1E cytokine-induced death, ATP luminescence, 48 h; percent of positive-control rescue, neutral wells zero;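 active = all replicates at 75% or more, or half of them and the mean; inconclusive = half reach 75% but not the mean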;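 also: 0% = cytokine-treated negative control wells and 100% = positive control rescue; higher means more ATP so stronger rescue from cytokine killing; wells of about 40 µL received 100 nL stock; the first replicate is given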
Calb FLC – affects C. albicans growth with fluconazole | C. albicans CaCi-2 (fluconazole-resistant clinical isolate) + fluconazole, Alamar Blue growth, 48 h | growth inhibition, % (no concentration beside the values) | 300,000 tested, 0.57% active;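 active = most replicates above 75%; inconclusive = exactly half above 75%; inactive = most below 75%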;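 also: all wells also contain fluconazole at 8 µg/ml as a sub-toxic cotreatment; 0% = median of DMSO wells and 100% = median of geldanamycin control wells; wells of about 8 µL received 7.5 nL stock; the first replicate is given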
Vif TR-FRET – inhibitors of Vif binding to APOBEC3G peptide, primary screen, biochemical, TR-FRET, GST-Vif 1-94, biotin-A3G peptide, dose response retest (AID 1117319). 260,000 tested, 0.57% active. one-dose inhibition, %; IC50 in µM for titrated hits. TR-FRET GST-Vif / biotin-A3G peptide binding; higher % means a stronger effect; test concentration not given here; strong numbers were not always called active;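 active = above the screen mean plus three standard deviations and confirmed in dose response; inconclusive = results disagree or hit not tested in dose response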;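 also: Vif residues 1-94 fused to GST binding biotinylated APOBEC3G peptide 110-148; 0% = full assay without inhibitor and 100% = GST in place of GST-Vif; retest series ran down from 100 µM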
MLL AF4-AF9 inh – MLL-AF4/AF9 protein interaction inhibition. 350,000 tested, 0.47% active. inhibition, % at 10 µM. AID 651704. P42568. AlphaScreen, biotin-AF4 peptide binding to FLAG-AF9;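 active = every replicate reaching a set inhibition limit, whatever the replicate mean, cut at about 25% in these data; inconclusive = mean inhibition reaches that limit but some replicates miss it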;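 also: 0% = plate neutral control median and 100% = total signal loss; the record names both 10 and 1 µM as test concentration; the first replicate is given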
Target sequence (P42568 whole entry, looked up): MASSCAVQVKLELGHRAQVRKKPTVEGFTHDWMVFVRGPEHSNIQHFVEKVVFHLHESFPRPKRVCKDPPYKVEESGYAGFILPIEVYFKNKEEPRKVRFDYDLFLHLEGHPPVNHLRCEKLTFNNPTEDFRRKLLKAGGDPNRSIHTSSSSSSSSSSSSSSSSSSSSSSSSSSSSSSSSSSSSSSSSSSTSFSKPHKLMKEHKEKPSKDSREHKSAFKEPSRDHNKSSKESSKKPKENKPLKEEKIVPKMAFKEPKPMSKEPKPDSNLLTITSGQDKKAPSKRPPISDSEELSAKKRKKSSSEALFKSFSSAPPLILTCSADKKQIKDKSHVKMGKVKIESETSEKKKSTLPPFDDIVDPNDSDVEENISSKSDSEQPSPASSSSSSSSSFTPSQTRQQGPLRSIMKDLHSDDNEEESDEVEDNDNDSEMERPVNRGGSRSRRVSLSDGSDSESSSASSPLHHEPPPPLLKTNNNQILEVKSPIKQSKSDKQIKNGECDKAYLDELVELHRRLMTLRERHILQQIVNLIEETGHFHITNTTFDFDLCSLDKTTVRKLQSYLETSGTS
RanGTP-Imp inh – inhibitors of RanGTP-importin-beta interaction, primary screen, biochemical, FRET, CFP-Ran, YFP-importin-beta, homogeneous | cell-free CFP-Ran/YFP-importin-beta FRET ratio | inhibition, % (test concentration not listed) | 300,000 tested, 1.1% active | AID 2216;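 active = most replicates above 15%; inconclusive = exactly half above 15%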;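 also: 0% = DMSO wells and 100% = Ran loaded with GDP instead of GTP; wells of about 40 µL received 100 nL stock; the first replicate is given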
T cruzi repl – T. cruzi replication inhibition; 300,000 tested, 1.4% active; T. cruzi beta-gal in NIH3T3, luminescence, 90 h; AID 1885; inhibition, % (concentration not given with the values);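 active = mean inhibition across valid replicates above about 55%, limit read from the data; inconclusive = mean below that limit but half or more replicates reach it; inactive = mean below it, under half of replicates reach it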;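 also: signal also drops with host cell toxicity which is not excluded here; 0% = plate median of DMSO wells and 100% = zero luminescence signal; higher percent means less beta-gal luminescence so fewer parasites; stock transfer was 50 nL into about 50 µL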
LANA-H2B inh – blocks KSHV LANA binding to histone H2A/H2B; 320,000 tested, 0.6% active; cell-free LANA-H2A/H2B peptide, fluorescence polarization; Q9QR71; inhibition, % (concentration not given with the values); in the data active = inhibition mostly above about 10%, no sharp cut-off; inactive = mostly below about 6.7%;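 also: stock transfer was 7.5 nL into about 10 µL; 0% = median of vehicle wells and 100% = median of positive control wells; one replicate is shown; the record names a cut of 25% in any replicate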
Bfl-1 A1 inh – inhibitors of the anti-apoptotic protein A1, read as caspase activation | MEF A1-2A-BIM cells, Caspase-Glo 3/7 luminescence, 3 h; percent of clofoctol response, vehicle zero | AID 2462 | 330,000 tested, 0.066% active | caspase activation, % (test concentration not listed);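 active = over half of replicate activation scores above 10%, or exactly half above 10 with the replicate mean above 10; inconclusive = replicate mean below 10 yet half the replicates above 10; inactive = over half of replicates below 10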;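 also: wells of about 30 µL received 50 nL stock; many hits fall short of the cut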
Numbers without * were called inactive; ? = inconclusive; / = no result given; & = joins results of further samples; ! = not confirmed by another sample.

SMILES	Beta cell apopt	Calb FLC	Vif TR-FRET	MLL AF4-AF9 inh	RanGTP-Imp inh	T cruzi repl	LANA-H2B inh	Bfl-1 A1 inh
CCCCCCCC(=O)N/N=C(\C)c1ccc(O)cc1O	18	3	/	2.6	1.7	-17	2.2	-0.4
CC1=Nn2c(nc3sc4c(c3c2=O)CCCC4)SC1	0	-1	0%	/	2.2	0	3.5	-5.4
CCOc1ccc(-c2nnc3ccc(SC)nn23)cc1	-1	-8	-2%	/	2.4	-5	6.6	1.2
CC(C)N(Cc1nc(-c2ccc(Cl)cc2)no1)C(=O)CCC1CCCC1	-4	5	-5%	-4.0	1.9	14	2.1	-0.4
COC(=O)c1ccc(-c2nc(-c3cccs3)no2)cc1	14	/	?	3.4	/	/	1.5	-3.7
Cc1ccccc1NC(=O)c1ccc(NC(=O)C2CCCO2)cc1 (stereo not drawn)	1	3	/	/	-1.6	0	-0.9	-1.4
CCCCn1c(N)c(N(CCOC)C(=O)C(C)N2C(=O)c3ccccc3C2=O)c(=O)[nH]c1=O (stereo not drawn)	-6	4	2%	-6.7	2.0	8	7.6	-0.3
CCc1nc2oc3cc(OC)ccc3c(=O)c2c(=O)n1-c1ccccc1	5	16	-4%	/	/	10	-4.6	-0.2
Cc1cc(NC(=O)CN2CCCC(C)C2)n(-c2nc3ccccc3s2)n1 (stereo not drawn)	/	-4	-9%	/	-1.4	-11	/	/
Cc1c(C(=O)N2CCN(C/C=C/c3ccccc3)CC2)oc2c(F)cccc12	-6	/	-9%	-0.8	/	/	-2.8	0.0
O=C(CN1C(=O)NC2(CCCCC2)C1=O)N1CCN(S(=O)(=O)/C=C/c2ccccc2)CC1	1	5	-3%	-25	1.6	-4	2.3	-0.2
O=C(Cc1nnc(NC(=O)Nc2ccccc2F)s1)NCc1ccccc1	4	1	/	-4.1	-0.6	-3	-6.1	0.0
CCOC(=O)c1sc2nc(C)nc(SCC(=O)NC(C)CCc3ccccc3)c2c1C (stereo not drawn)	2	12	/	3.1	-1.0	-3	-3.4	0.3
O=C(NCCc1ccccn1)c1cc(-c2ccccc2Cl)nc2ccccc12	2	9	20%	/	0.9	3	0.9	0.4
Cc1cc(NC(=O)c2ccccc2)ccc1NC(=O)Cc1ccccc1	1	1	2%	-4.6	8.4	-8	3.8	0.2
O=C(CN1CCCc2ccccc21)NC(=O)NC1CCCCC1	-2	-41	1%	10	1.2	1	0.8	0.3
CSc1nc(NCCOCCO)c2sc3nc(-c4ccco4)c4c(c3c2n1)CCC4	-4	15	1.4µM*!	/	?	/	1.0	-1.3
COc1ccc(CC(=O)NC(C)c2nnc(SCC(=O)Nc3nc(C)cs3)n2C)cc1 (stereo not drawn)	/	-2	1%&0%	/	1.6	-10	-3.1	-0.8
CC(=O)c1ccc(OCCCC(=O)OCC(=O)Nc2ccc3[nH]c(=O)[nH]c3c2)cc1	-3	/	2%	0.3	4.3	-12	-1.1	-0.1
O=C(CCNS(=O)(=O)c1cccc2nonc12)NC1CCCc2ccccc21 (stereo not drawn)	-4	/	4%	/	/	/	3.3	-0.8
CCC1=C(OC(=O)N(CC)CC)N2C(=O)OC(=NCC(=O)OC)[C@]2(Cc2ccccc2)[C@H]2C1=CC[C@H]1C(=O)N(c3ccccc3)C(=O)[C@H]12	-6	-18	6%	-5.6	-4.1	1	-3.0	0.0
O=C(CCCCn1c(=O)[nH]c2ccsc2c1=O)NCc1cccnc1	-5	9	65%	/	0.0	-11	0.9	0.9
CCCCn1c(NCc2cccs2)nc2ccccc21	/	66	/	0.0	-2.0	5	2.3	0.9
O=C(c1ccc(COc2c(F)c(F)cc(F)c2F)o1)N1CCN(c2ccc(Cl)cc2)CC1	/	8	-4%&-2%	/	6.9	47	5.4	0.7
CC1CCN(S(=O)(=O)c2ccc3c(c2)C(=NO)c2cc(S(=O)(=O)N4CCC(C)CC4)ccc2-3)CC1	104*	/	0%&-9%	/	/	/	-7.1	2.1
SMILES	Beta cell apopt	Calb FLC	Vif TR-FRET	MLL AF4-AF9 inh	RanGTP-Imp inh	T cruzi repl	LANA-H2B inh	Bfl-1 A1 inh
CCOC(=O)c1oc2ccccc2c1NC(=O)c1ccc(S(=O)(=O)N2CCCC2)cc1	4	-3	2%	-36	?	25	-0.9	0.9
CC1CCN(CCCCOc2ccccc2Br)CC1	-8	-11	6%	4.6	1.0	9	-2.4	1.2
Cc1cc(=O)n2nc(N3CCCC(C(=O)NCc4cccc(Cl)c4)C3)sc2n1 (stereo not drawn)	-3	-3	5%	2.5	6.2	-2	1.1	0.3
COCCNC(=S)N/N=C/c1ccc(N2CCOCC2)cc1	64	-11	0%	-0.7	2.0	-5	5.5	-0.6
CCC(Sc1ccc2nnc(-c3ccc(F)cc3)n2n1)C(=O)O (stereo not drawn)	/	2	-5%	/	0.8	-23	/	/
O=C(CCn1c(=O)[nH]c2ccccc2c1=O)N1CC=C(c2ccccc2)CC1	-3	23	-6%	-4.6	8.5	-6	1.1	-0.2
Nn1c(SCC(=O)NCCC2=CCCCC2)nnc1C(F)(F)F	3	-40	-5%	-0.4	0.7	-7	-11	0.3
O=C(c1ccc([N+](=O)[O-])cc1)N1CCN(Cc2ccccc2[N+](=O)[O-])CC1	9	0	6%	/	6.2	-10	5.2	0.6
CCCCS(=O)(=O)N1CCCC(C(=O)NCC2CCCO2)C1 (stereo not drawn)	-4	-6	/	0.4	1.5	5	1.9	-0.1
CCS(=O)(=O)c1nnnn1-c1ccccc1S(C)(=O)=O	-75	0	5%	-7.7	-2.3	-8	-4.4	0.2
COc1ccc(S(=O)(=O)N2CCOCC2)cc1NC(=O)c1ccc(Cl)cc1	/	-3	-12%	-0.2	3.3	-6	5.2	1.4
COc1ccc(Br)cc1C(=O)Nc1cccc(C)c1C	3	-7	-4%	-0.7	-4.1	10	1.9	-0.8
Cc1ccc(CN2CCN(Cc3ccc(-n4cccn4)cc3)CC2CCO)cc1 (stereo not drawn)	-6	-15	-9%	3.3	?	29	3.3	0.3
CC1CCN(S(=O)(=O)c2ccc3c(c2)N(CC(=O)NCCCN(Cc2ccccc2)C(C)C)C(=O)CO3)CC1	-2	1	/	-3.0	2.4	19	-1.4	-0.5
CC(=O)Nc1ccc2c(c1)ncn2C1CCCCC1	0	1	-3%	/	1.7	-10	-4.5	-0.1
CCOC(=O)C(=CNc1ccc(O)c(C(=O)OC)c1)C(=O)OCC	-5	5	/	/	-0.4	-9	-0.4	-0.1
CCN(CC)C(=O)N1CCC(NC(=O)c2ccccc2)CC1	-6	36	1%	/	?	-1	-2.1	-0.7
Cc1cc(C)cc(N(CC(=O)NCc2ccco2)S(=O)(=O)c2c(C)noc2C)c1	/	10	-2%	6.4	1.2	-5	-4.5	-0.8
O=C(COc1ccc2ccccc2c1)N/N=C/C1CC=CCC1 (stereo not drawn)	-1	3	-3%	/	-2.5	-4	7.6	-2.3
CC12CC(c3ccccc3O1)C(/C(N)=N/NC(=O)c1ccc(F)cc1)C(=O)N2 (stereo not drawn)	4	?	?	0.0	-1.9	-6	-3.8	1.4
CN(C(=O)COC(=O)c1nc(Cl)ccc1Cl)C1CCS(=O)(=O)C1 (stereo not drawn)	-6	10	/	-0.8	-0.5	-6	0.2	-0.2
NS(=O)(=O)c1ccc(CNC(=O)Cc2ccsc2)cc1	-5	5	-6%	0.1	1.0	-8	3.8	0.6
O=C(Nc1cccc(C(F)(F)F)c1)NC1CCCCC1	0	1	5%	/	1.4	15	-3.7	-0.4
Cc1cc(C)cc(OCC(=O)OCC(=O)N(C)CC(=O)Nc2ccc(F)cc2)c1	0	-3	-6%	7.2	5.3	-9	3.2	0.8
COc1ccc2[nH]c3c(NCCN(C(C)C)C(C)C)ncnc3c2c1	1	/	4%	/	/	/	-1.3	0.1
SMILES	Beta cell apopt	Calb FLC	Vif TR-FRET	MLL AF4-AF9 inh	RanGTP-Imp inh	T cruzi repl	LANA-H2B inh	Bfl-1 A1 inh
Cc1oc(-c2ccccc2)nc1Cn1cccc1C1=NC(c2ccccc2)CO1 (stereo not drawn)	6	2	11%	/	?	9	-3.3	0.1
COc1ccc(N2CCN(S(=O)(=O)/C=C/c3ccccc3)CC2)cc1	0	1	1%	/	0.2	-1	-1.3	-0.5
CC(C)(C)C(=O)CN1C(=O)NC(c2ccccc2)(c2ccccc2)C1=O	0	-3	/	-0.6	-0.1	6	2.1	0.2
Cc1ccc(NC(=O)c2ccc3c(=O)n4c(nc3c2)CCCCC4)cc1F	-5	46	1%	-1.2	3.0	18	3.0	-0.2
COc1ccc(/C=N/NS(=O)(=O)c2ccc(C)cc2)cc1OC(=O)c1ccccc1	-1	5	-5%	/	2.3	/	2.0	0.1
CCOc1ccc(OCCNC(=O)c2ccc3c(c2)nnn3CC)cc1	10	/	/	-0.3	/	/	4.7	-0.3
CCC(C)NC(=O)CC(NS(=O)(=O)c1ccc(NC(C)=O)cc1)C(C)C (stereo not drawn)	-7	5	-5%	-1.2	3.8	-6	1.7	-0.8
CC(=O)c1cccc(N(CC(=O)NCC2CCCO2)C(=O)CCC(=O)Nc2cc(C)on2)c1 (stereo not drawn)	-3	5	-6%	/	0.2	5	-0.7	0.1
CCn1c(SCC(=O)c2cc(OC)ccc2OC)nnc1-c1ccncc1	-4	4	/	3.0	-2.5	-17	0.1	-0.1
CC1(C)CC2(CC(c3ccccc3)Oc3cc(O)ccc32)NC(=O)N1 (stereo not drawn)	-1	0	21%	4.2	0.4	8	-8.3	-0.2
Cc1nn(Cc2ccccc2)c(C)c1NS(=O)(=O)c1ccccc1	-1	-3	-2%	-0.5	0.8	-4	-1.2	0.4
O=C(CN1C(=O)C2C3C=CC(C4CC34)C2C1=O)NCc1ccco1 (stereo not drawn)	-7	?	-3%	-0.7	2.3	-1	6.3	0.2
COc1ccc([N+](=O)[O-])cc1NC(=O)c1ccc(N(Cc2ccccc2Cl)S(C)(=O)=O)cc1	-7	1	17%	/	2.3	12	2.0	0.7
O=C(CCN1CCOCC1)N/N=C/c1cc([N+](=O)[O-])ccc1OC(F)F	0	3	0%	-0.6	-3.3	-19	-4.2	0.3
CC(C)CCn1nnnc1CN1CCN(C(=O)c2ccco2)CC1	-8	-1	/	-0.1	-1.4	-14	-1.5	0.3
O=C(CSc1ccccc1)Nc1ccc2c(c1)OCO2	5	-13	/	1.8	2.9	-2	-7.2	0.1

Compound profiles (already shown). Screens in order: Beta cell apopt | Calb FLC | Vif TR-FRET | MLL AF4-AF9 inh | RanGTP-Imp inh | T cruzi repl | LANA-H2B inh | Bfl-1 A1 inh
Cc1cc(C)cc(OCC(=O)OCC(=O)N(C)CC(=O)Nc2ccc(F)cc2)c1 is listed with 0 | -3 | -6% | 7.2 | 5.3 | -9 | 3.2 | 0.8
O=C(Cc1nnc(NC(=O)Nc2ccccc2F)s1)NCc1ccccc1 is listed with 4 | 1 | / | -4.1 | -0.6 | -3 | -6.1 | 0.0
CCOc1ccc(OCCNC(=O)c2ccc3c(c2)nnn3CC)cc1 is listed with 10 | / | / | -0.3 | / | / | 4.7 | -0.3
Cc1ccc(NC(=O)c2ccc3c(=O)n4c(nc3c2)CCCCC4)cc1F is listed with -5 | 46 | 1% | -1.2 | 3.0 | 18 | 3.0 | -0.2
